# PINK1 expr mod – A Quantitative High throughput Screen to Identify Chemical Modulators of PINK1 Expression; 410,000 tested, 0.2% active; PINK1 immunofluorescence, high-content cytometry, 24 h; Potency, µM (doses to about 76.6 µM), without a hit: at the highest dose activation (PINK1 increase), usual class: activators; AID 624263, 2012; active = well fitted activation curve with a large enough effect; inconclusive = small, poorly fitted or top-dose-only effect; inactive = flat fitted curve, though single readings scatter; cell line not stated here;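 also: potency is read from the fitted curve at half-maximal effect; % of control where 0% means no effect; nearly all actives have a fitted effect of over 65% in size; a mitochondrial uncoupler was the plate control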
#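 Stable cell line treated 24 h with compounds at 5 concentrations (CCCP controls), then fixed and immunostained for PINK1 plus nuclear and cell stains; PINK1 immunofluorescence quantified by laser-scanning microplate cytometry.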
# Sfp PPTase inh – qHTS Assay for Inhibitors of Bacillus subtilis Sfp phosphopantetheinyl transferase (PPTase); 4'-phosphopantetheinyl transferase ffp (Bacillus subtilis), Q9F4F7; Biochemical Sfp PPTase activity, qHTS; Potency, µM, without a hit: max response, negative = inhibition, hits mostly inhibitors; 310,000 tested, 3.5% active; AID 1490, 2009; active = well fitted inhibition curve with a large enough effect; inconclusive = small, poorly fitted or top-dose-only effect, or another doubt; inactive = no such curve, though single readings can be large or run the other way;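 also: the enzyme is Sfp with the accession as filed and its product quenches rhodamine fluorescence; potency is read from the fitted curve at half-maximal effect; 0% = enzyme reaction without inhibitor and -100% = no enzyme wells; top concentration of the series not given in the record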
#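 After 15 min at room temperature with compound, 15 nM Sfp received 5 uM rhodamine-CoA plus 12.5 uM BHQ-2-ybbR (50 mM Hepes pH 7.6, 10 mM MgCl2). Rate came from the fluorescence difference over 30 min, ex 525/em 598 nm.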
# Six1-Eya2 blk – qHTS Assay for Inhibitors of the Six1/Eya2 Interaction | Homeobox protein SIX1 (Homo sapiens) + Protein phosphatase EYA2 (Homo sapiens), … | AlphaScreen GST-Six1/His-Eya2 binding, biochemical; hits give low values; control for the full effect not named in the record | activity change, % (no concentration beside the values) | 360,000 tested, 0.56% active | AID 651725, 2012; in the data active = activity change below about -65%; inconclusive = about -30% to -65%; inactive = above about -30%; also: % is scaled to controls: 0 for no effect and ±100 for the full control effect; compound concentration not given in the record
# Target sequence (O00167 whole entry, looked up): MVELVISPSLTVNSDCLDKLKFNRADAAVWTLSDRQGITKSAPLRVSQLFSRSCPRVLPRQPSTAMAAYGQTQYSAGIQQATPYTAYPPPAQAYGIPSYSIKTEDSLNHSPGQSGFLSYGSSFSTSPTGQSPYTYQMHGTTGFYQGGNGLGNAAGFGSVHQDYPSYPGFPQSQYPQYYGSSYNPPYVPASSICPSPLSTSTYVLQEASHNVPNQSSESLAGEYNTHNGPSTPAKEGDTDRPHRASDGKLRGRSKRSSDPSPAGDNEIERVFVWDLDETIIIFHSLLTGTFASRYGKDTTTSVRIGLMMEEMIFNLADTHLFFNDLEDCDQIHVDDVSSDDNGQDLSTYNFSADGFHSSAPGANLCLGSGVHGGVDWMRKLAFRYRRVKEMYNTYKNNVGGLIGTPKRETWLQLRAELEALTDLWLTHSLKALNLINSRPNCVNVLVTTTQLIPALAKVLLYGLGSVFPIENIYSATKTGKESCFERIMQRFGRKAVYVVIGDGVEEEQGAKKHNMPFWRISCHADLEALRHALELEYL
# Target sequence (Q15475 whole entry, looked up): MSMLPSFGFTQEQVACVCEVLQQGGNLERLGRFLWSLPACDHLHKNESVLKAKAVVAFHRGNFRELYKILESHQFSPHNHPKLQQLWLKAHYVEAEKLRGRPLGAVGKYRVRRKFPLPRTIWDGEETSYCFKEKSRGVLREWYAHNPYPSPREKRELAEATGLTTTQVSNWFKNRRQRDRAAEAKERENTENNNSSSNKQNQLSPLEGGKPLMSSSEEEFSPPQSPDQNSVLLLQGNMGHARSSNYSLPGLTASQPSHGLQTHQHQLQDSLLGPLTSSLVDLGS
#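 Homogeneous AlphaScreen proximity assay pairing GST-Six1 with His-tagged Eya2 (added as 5X mix: 250 nM and 500 nM) in 50 mM Tris pH 8.0, 300 mM NaCl, 1 mM TCEP. Glutathione donor and nickel acceptor beads; 1 h, 37 °C, dark.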
# TRPV1 PAM – HTS Assay for Compounds that Act as Potentiators of the Vanilloid Receptor 1. Transient receptor potential cation channel subfamily V member 1 (Homo sapiens), Q8NER1. TRPV1-expressing cells, Fluo-8 calcium influx, capsaicin EC20 potentiation; host cell line not named in the record; control for the full effect not named in the record. potentiation, % at 8.33 µM. 320,000 tested, 0.02% active; active means potentiation above 80%; inconclusive means 30% to 80%; inactive means below 30%; also: 0% is about no effect
#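 Fluo-8 calcium influx in TRPV1-expressing cells, kinetic read (ex 480/em 520 nm). Compound added and read 3 min for agonist activity, followed by capsaicin at EC20 final and 2 min further read for enhancement.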
# CtBP-E1A blk – qHTS Assay for Inhibitors of the CtBP/E1A Interaction; CtBP / adenovirus E1A interaction (AlphaScreen); AlphaScreen GST-E1A/His-CtBP binding, 1536-well; hits give low values; control for the full effect not named in the record; activity change, % (concentration not given with the values); 340,000 tested, 0.49% active; in the data active means activity change below about -65%; inconclusive means about -30% to -65%; inactive means above about -30%; also: % is scaled to controls: 0 for no effect and ±100 for the full control effect
#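 GST-E1A and His-tagged CtBP (125 nM each as 5X stock) were preincubated with pin-transferred compound for 2 h at 37 °C in the dark, then glutathione donor and nickel acceptor beads were added for 1 h before AlphaScreen reading.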
# D2 agonist – Beta-Arrestin HTS for Positive Allosteric Modulators of the Human D2 Dopamine Receptor: Agonists | D(2) dopamine receptor (Homo sapiens), P14416 | DiscoveRx PathHunter D2 beta-arrestin, luminescence, 90 min; 100% = 57 uM dopamine signal | activation, % (concentration not given with the values) | 360,000 tested, 0.084% active; in the data active = activation above about 40%; inconclusive = about 15% to 40%; inactive = below about 15%; also: compound concentration not given in the record; the text of the record calls up to 30% inactive
#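 Agonist mode: compounds alone added to overnight-plated D2 PathHunter cells for 90 min at 37 C, with 57 uM final dopamine (EC100) defining full response. Beta-arrestin recruitment detected by chemiluminescent reagent, read after 1 h at ambient temperature.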
# D2 potentiator – Beta-Arrestin HTS for Positive Allosteric Modulators of the Human D2 Dopamine Receptor: Potentiators. 360,000 tested, 0.23% active. DiscoveRx D2 beta-arrestin cells, luminescence, 90 min; 100% = 57 uM dopamine signal. D(2) dopamine receptor (Homo sapiens), P14416. potentiation, % (test concentration not listed). AID 624464, 2012; active = potentiation of 50% or more; inconclusive = 30% to 50%; inactive = 30% or less;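 also: compound concentration not given in the record; tested on top of an EC20 dose of dopamine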
#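 PathHunter D2 cells, attached overnight at 37 deg C, received compound in DMSO plus dopamine at EC20 (50 nM final) for 90 min at 37 deg C. Beta-arrestin recruitment was read as luminescence after 1 h with detection reagent at ambient temperature.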
# The depositor's hits bear a star; ? = inconclusive; . = not tested or not shown; & = joins results of further samples; [ ] = dose if it differs, or a comment.
# Results follow in this order: PINK1 expr mod	Sfp PPTase inh	Six1-Eya2 blk	TRPV1 PAM	CtBP-E1A blk	D2 agonist	D2 potentiator
1	CCC1(CC)NC(=S)N(Nc2ccccc2)C1=O
→ -2.7%[38.3 µM]	5%	2	-10	4	-0.5	-4
2	O=C1c2ccccc2C(=O)C1c1ccncc1
→ -0.9%	0%	?	2	?	8.0	18
3	Cc1cc(Cl)ccc1NC(=S)NCc1ccccc1
→ -1.5%	25%	-3	-29	-6	-1.5	-10
4	C=CCN(C(=O)Cn1ncc2c1-c1cc(C)ccc1OC2)c1ccccc1
→ -0.8%	-22%	-1	27	1	2.7	-4
5	CC(=O)c1cccc(NC(=S)N2CCN(c3ccccn3)CC2)c1
→ 0.2%	5%	-4	-9	-4	-1.1	-9
6	OCC[C@@H]1C[C@@H](O)[C@H](O)[C@@]2(CCCc3ccccc3O2)O1
→ 0.4%	26%	0	-3	3	-0.8	4
7	COc1ccc(CCNC(=O)c2ccc3c(=O)n(Cc4ccco4)c(=S)[nH]c3c2)cc1OC
→ 5.9%	?	-1	9	3	-1.0	4
8	COc1ccc(N2CCN(c3oc(COc4ccc(Cl)cc4)nc3C#N)CC2)cc1
→ 0.8%	1%	?	10	?	0.0	-3
9	CN(C)S(=O)(=O)Nc1ccccc1F
→ -0.5%	-4%	8	0	-2	1.9	2
10	O=C(Nc1ccccc1)c1cccc(-c2nnc(-c3ccccc3)o2)c1
→ 10%	18%	-6	11	0	-3.0	-10
11	Cc1ccc(C(=O)NC(O)C(Cl)Cl)cc1 (stereo unspecified)
→ 1.0%	-8%	3	4	6	-6.5	0
12	CCc1nnc(NC(=O)CSCc2cc(=O)n3nc(C(C)C)sc3n2)s1
→ 2.1%	-3%	11	-9	.	1.7	-6
13	CCc1ccc(C(=O)COC(=O)c2ccccc2OC)cc1
→ 0.0%	-2%	14	-7	-2	-1.7	29
14	O=S(=O)(Cc1ccc(Cl)cc1)N1CCN(Cc2ccccc2)CC1
→ -1.2%[38.3 µM]	0%	6	-19	13	2.9	-5
15	CCOc1ccc2sc(NS(=O)(=O)c3ccc(N)cc3)nc2c1
→ 0.7%	16%	2	3	0	-2.5	0
16	CC(OC(=O)c1cccc(S(=O)(=O)N2CCCC2)c1)C(=O)NC1CCCCC1C (stereo unspecified)
→ -2.4%	.	6	-3	3	0.1	-9
17	CCc1ccc(-n2c(C)n[nH]c2=S)cc1
→ 1.5%	-8%	-8	-1	-18	2.0	-9
18	O=C(NCc1ccco1)C1CCCN(S(=O)(=O)c2cnc[nH]2)C1 (stereo unspecified)
→ 1.1%	-5%	6	-5	-1	-1.2	-8
19	Cc1ccccc1Nc1nc(N)nc(COC(=O)CCS(=O)(=O)c2ccccc2)n1
→ 9.4%[38.3 µM]	13%	-2	-11	4	1.3	-4
20	N#CNC(=Nc1cccc(F)c1)SCc1ccccc1F
→ ?	11%	0	-10	.	-4.0	-18
21	CCCC(=O)OCCNc1cc(SCc2ccco2)c2nonc2c1[N+](=O)[O-]
→ 1.1%	11µM*	?	3	-25	4.7	13
22	CCOC(=O)Cc1csc(NC(=O)CSc2nnnn2-c2ccc(C)c(C)c2)n1
→ 0.5%	11%	-8	-19	0	-4.1	-31
23	COc1ccc(-c2ccc3c(=O)cc(-c4ccsc4)oc3c2)cn1
→ 0.4%	.	1	.	-10	-4.7	-3
24	CC12CN3CCN(CC(C3)/C1=N\N=C1/C3CN4CCN(C3)CC1(C)C4)C2
→ -1.2%	-2%	2	-1	2	-4.7	-1
25	Cc1ccc(/C=N/NC(=O)c2ccc3c(c2)OCCO3)s1
→ 6.1%	-8%	5	.	-8	-3.3	-5
26	CCCCCCC1C(C#N)=C(N)OC2=C1C(=O)CC(C)(C)C2 (stereo unspecified)
→ 6.5%	11%	-2	-13	9	2.1	-1
27	CCCS(=O)(=O)NC(=O)C1(C)CCN(C(=O)c2ccccc2OC(C)=O)C1 (stereo unspecified)
→ 1.2%	.	15	.	-17	-1.8	-3
28	Cc1ccc(Nc2ccc(C(F)(F)F)cc2[N+](=O)[O-])cc1
→ 6.9%	15%	?	20	-29	-5.6	0
29	COCCN(C(=O)CSc1nc2ccc(Cl)cc2[nH]1)c1c(N)n(Cc2ccccc2)c(=O)[nH]c1=O
→ -0.7%	-4%	-3	3	-3	1.3	?
30	COc1cccc(OCCCCSc2ncccn2)c1
→ 2.6%	-14%	49	10	38	0.3	8

# Just D2 agonist, TRPV1 PAM and Sfp PPTase inh (2 entries from above):
nr | SMILES | D2 agonist | TRPV1 PAM | Sfp PPTase inh
19 | Cc1ccccc1Nc1nc(N)nc(COC(=O)CCS(=O)(=O)c2ccccc2)n1 | 1.3 | -11 | 13%
20 | N#CNC(=Nc1cccc(F)c1)SCc1ccccc1F | -4.0 | -10 | 11%

# (next part)
# Results follow in this order: PINK1 expr mod	Sfp PPTase inh	Six1-Eya2 blk	TRPV1 PAM	CtBP-E1A blk	D2 agonist	D2 potentiator
31	Cc1c(S(=O)(=O)N2CCN(c3ccccc3)CC2)c(=O)n(C)c(=O)n1C
→ 0.4%	12%	-1	-8	-6	3.8	-2
32	Cn1c(=O)n(C)c2cc(CN3C(=O)OC(C)(C)C3(C)O)ccc21 (stereo unspecified)
→ 2.2%	4%	-2	24	2	-1.7	2
33	N#CCC(=O)Nc1cc(C(F)(F)F)ccc1N1CCOCC1
→ 1.5%	14%	-1	22	3	-1.4	-2
34	Cc1onc(-c2ccc3c(c2)OCO3)c1-c1ccc2[nH]ccc2c1
→ 1.7%	3%	-3	?	-2	-1.3	-8
35	CC(=O)N1CC(c2ccccc2)C(c2ccc(Cl)cc2)=N1 (stereo unspecified)
→ -0.3%	-5%	-1	-23	-10	-3.2	-1
36	O=C(Nc1ccc2c(c1)OCCO2)C1CCN(C(=O)c2ccc(Cl)cc2)CC1
→ 11%	6%	3	-2	-12	-2.3	-4
37	Cn1c(=O)n(C)c2cc(NS(=O)(=O)c3ccc(F)cc3)ccc21
→ 4.4%&2.9%	-2%	14	?	0	3.7	-3
38	COC(=O)c1ccc(COc2ccc(/C=N/O)cc2OC)o1
→ -0.1%	10%	0	1	0	3.2	0
39	COCCCN1C(=O)C2C(C(=O)Nc3cc(C)cc(C)c3)C3C=CC2(O3)C1C(=O)NC1CCCCC1 (stereo unspecified)
→ 2.5%	40µM*	2	19	3	-5.7	-19
40	COc1cc(/C=N/NC(=O)c2nc3ccccn3c2C)cc(OC)c1O
→ 2.9%	1%	-5	13	-6	2.4	7
41	O=C(c1ccc(F)cc1)C1CCN(S(=O)(=O)c2ccccc2)CC1
→ 1.3%	-2%	1	-12	6	-1.6	-4
42	Oc1ccc(Nc2nc(NCC3CCCO3)c3ccccc3n2)cc1 (stereo unspecified)
→ 0.9%	-14%	-20	2	?	-0.3	-8
43	CCCNC(=O)N(CCOC)CC1CCCN(C2Cc3ccccc3C2)C1 (stereo unspecified)
→ 1.3%	7%	0	-6	7	2.1	-17
44	Cc1cc(CNC(=O)c2ccc3nc(Cc4ccccc4F)oc3c2)nn1C
→ 3.9%	7%	2	-3	0	-1.9	-4
45	O=C(Nc1ccc2c(c1)OCCO2)C(CCc1ccccc1)N1CCN(c2ccc(F)cc2)CC1 (stereo unspecified)
→ 0.0%	.	-26	.	-21	-3.0	-4
46	Cc1cc(C(=O)COC(=O)c2ccc3c(c2)NC(=O)CS3)c(C)n1CCc1ccc(Cl)cc1
→ 2.7%	?	7	-19	-7	1.5	6
47	O=C(CCSc1nnc2ccccn12)Nc1ccc(F)cc1
→ 4.2%[38.3 µM]	34%[activator]	4	4	16	0.2	-5
48	CC(C)(C)OC(=O)N1CCC[C@H]1c1nnc(SCC(=O)Nc2ccc(Br)cc2)o1
→ 0.8%	6%	-13	6	-3	-11	-20
49	Cc1nc2ccc(NS(=O)(=O)c3ccc(F)cc3)cc2s1
→ 0.7%	12%	22	-3	-13	-3.4	-27
50	Cc1ccc(S(=O)(=O)N2CCCCC2)cc1C(=O)NCCC1=CCCCC1
→ -0.1%	.	7	-6	3	-1.1	2
51	CCOC(=O)c1cnn(-c2ccccc2)c1NC(=O)C(F)(F)C(F)(F)C(F)(F)F
→ -0.9%	28%	3	28	-4	2.1	4
52	CCc1nc2c(OCc3ccc(C(=O)N(C)C)cc3)cccn2c1N(C)C(=O)c1ccc(C)cc1
→ 0.4%	.	3	.	-9	-3.3	-17
53	CCOC(=O)c1c(NC(=O)CN2CCCCC2)sc2c1CCN(C(=O)OCC)C2
→ 2.4%[38.3 µM]	?	-12	-4	2	-0.7	-7
54	O=C(c1ccc2c(c1)OCO2)C1CCCN(Cc2c(F)ccc(F)c2F)C1 (stereo unspecified)
→ 0.0%	2%	-6	12	-4	-4.3	-18
55	O=C(/C=C/N1CCN(Cc2ccccc2)CC1)C(F)(F)F
→ 5.2%	25%	5	-6	0	-6.9	-1
56	Cc1cc(=O)n2ccsc2n1
→ -1.0%	9%	11	-1	5	-3.4	-14
57	O=C(O)CN1CCCCC1
→ 2.9%	-9%	0	-18	-6	-2.5	1
58	N#CCc1ccc(Oc2ccc([N+](=O)[O-])cn2)cc1
→ -0.9%	-13%	3	.	-10	-4.1	-6
59	Cn1nnc2c[n+](CC(=O)c3ccc(Cl)cc3)cc(Br)c21
→ 14%	9%	16	13	0	2.6	-19
60	CC1CCN(CCCNC(=O)C2CC(=O)N(CCc3ccccc3)C2)CC1 (stereo unspecified)
→ -2.3%	19%	8	4	0	-4.7	-18
61	O=C(NNC(=S)NC(=O)c1cccs1)c1ccc(O)cc1
→ 0.2%	13%	-5	-27	-17	-3.5	-5
62	CC(C)(C)c1ccc(SC2=C[C@@]3(O)CC[C@@H](O)[C@@](Sc4ccc(C(C)(C)C)cc4)(C2=O)[C@H]3O)cc1
→ ?	.	-16	.	-4	.	.
63	CCOC(=O)c1sc2nc(CC(C)C)c3c(c2c1N)CCC3
→ 11%	17%	18	5	0	-5.8	-2
64	COc1ccccc1C1CC(=O)NC(C)=C1C(=O)OC(C)C (stereo unspecified)
→ 1.4%	9%	0	8	0	-2.8	-14
